Compound activity (PubChem BioAssay)
ALR inh: inhibitors of human ALR sulfhydryl oxidase, primary screen, biochemical, H2O2 detection, HRP-luminol luminescence, single point; inhibition, % (no concentration beside the values); purified ALR, DTT oxidation; FAD-linked sulfhydryl oxidase ALR (Homo sapiens), P55789; 3.8% of 290,000 active;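 active means mean and each replicate at 75% or more; inconclusive means only one of the two met; inactive means neither met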;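 further: stock transfer was 7.5 nL into about 7.5 µL; 0% = neutral wells and 100% = wells with inactivated enzyme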
Target sequence (P55789 whole entry, looked up): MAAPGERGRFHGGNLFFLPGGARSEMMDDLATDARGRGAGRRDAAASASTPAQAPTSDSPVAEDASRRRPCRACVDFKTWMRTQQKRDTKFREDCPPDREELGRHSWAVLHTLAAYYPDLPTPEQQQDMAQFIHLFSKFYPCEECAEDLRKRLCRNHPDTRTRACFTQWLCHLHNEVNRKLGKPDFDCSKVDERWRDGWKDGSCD
Vif TR-FRET: inhibitors of Vif binding to APOBEC3G peptide, primary screen, biochemical, TR-FRET, GST-Vif 1-94, biotin-A3G peptide, dose response retest (AID 1117319); Virion infectivity factor (Human immunodeficiency virus type 1 group M subtype B (isolate …; TR-FRET GST-Vif / biotin-A3G peptide binding; higher % means a stronger effect; test concentration not given here; strong numbers were not always called active; one-dose inhibition, %; IC50 in µM for titrated hits; 0.57% of 260,000 active;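 active means above the screen mean plus three standard deviations and confirmed in dose response; inconclusive means results disagree or hit not tested in dose response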;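 further: Vif residues 1-94 fused to GST binding biotinylated APOBEC3G peptide 110-148; 0% = full assay without inhibitor and 100% = GST in place of GST-Vif; retest series ran down from 100 µM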
AF4-AF9 inh: inhibitors of AF4 peptide binding to AF9, primary screen, biochemical, AlphaScreen, biotin-AF4 peptide, FLAG-AF9, single point. 0.47% of 350,000 active. inhibition, % at 10 µM;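 active means every replicate reaching a set inhibition limit, whatever the replicate mean, cut at about 25% in these data; inconclusive means mean inhibition reaches that limit but some replicates miss it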;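 further: 0% = plate neutral control median and 100% = total signal loss; the record names both 10 and 1 µM as test concentration; the first replicate is given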
Target sequence (P42568 whole entry, looked up): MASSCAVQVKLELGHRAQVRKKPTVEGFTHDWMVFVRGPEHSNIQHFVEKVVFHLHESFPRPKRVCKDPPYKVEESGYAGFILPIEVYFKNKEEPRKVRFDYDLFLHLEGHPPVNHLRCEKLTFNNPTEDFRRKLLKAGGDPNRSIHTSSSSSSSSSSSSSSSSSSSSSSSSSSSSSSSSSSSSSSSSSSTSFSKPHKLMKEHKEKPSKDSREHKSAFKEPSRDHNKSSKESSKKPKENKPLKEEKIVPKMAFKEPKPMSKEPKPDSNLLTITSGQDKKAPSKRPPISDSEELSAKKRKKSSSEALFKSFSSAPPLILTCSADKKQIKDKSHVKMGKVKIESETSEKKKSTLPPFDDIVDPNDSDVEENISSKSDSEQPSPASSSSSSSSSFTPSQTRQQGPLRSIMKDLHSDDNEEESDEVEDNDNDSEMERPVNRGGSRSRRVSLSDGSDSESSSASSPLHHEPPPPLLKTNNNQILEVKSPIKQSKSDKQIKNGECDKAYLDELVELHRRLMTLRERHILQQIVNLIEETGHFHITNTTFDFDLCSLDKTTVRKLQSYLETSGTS
rRNA inh HTS: reduced GFP signal of wild-type E. coli, primary screen, bacterial rRNA inhibitor project, GFP/RFP fluorescence, OD600, single point | AID 720706, 2013 | E. coli WT GFP vs humanized-ribosome RFP mutants, 24 h; stronger effect = lower value; DMSO median 0, no signal -100 | GFP signal change (wild-type ribosome), % (concentration not given with the values) | 1.6% of 350,000 active;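 active means significant combined selectivity score with lowered wild-type GFP, culture density cut under 30%, mutant RFP and density less affected; inactive means any of these conditions unmet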; further: one replicate is shown; some compounds called inactive have numbers as strong as hits
E coli growth: E. coli growth inhibition, primary screen, OD600; Escherichia coli growth, 23 h; stronger effect = lower value; OD600 absorbance (test concentration not listed); 0.21% of 330,000 active;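 active means OD600 absorbance below the run mean of sample wells minus 3.6 SD, in any replicate, cut at about 0.56 in these data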;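 further: stock transfer was 300 nL into about 60 µL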
FGF22 binding: binders of human FGF22 protein, primary screen, FGF22 synaptogenesis inhibitor project, biophysical, thermal shift, single point | AID 651658, 2012 | recombinant FGF22 thermal shift, SYPRO orange fluorescence; percent of sucrose octasulfate shift, DMSO zero | 1.5% of 340,000 active | calls only at 9.99 µM | Fibroblast growth factor 22 (Homo sapiens), Q9HCT0;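 active means melting point raised past a set limit in the mean and every replicate; inconclusive means no clear call; three in four hits are not shown here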
Target sequence (Q9HCT0 whole entry, looked up): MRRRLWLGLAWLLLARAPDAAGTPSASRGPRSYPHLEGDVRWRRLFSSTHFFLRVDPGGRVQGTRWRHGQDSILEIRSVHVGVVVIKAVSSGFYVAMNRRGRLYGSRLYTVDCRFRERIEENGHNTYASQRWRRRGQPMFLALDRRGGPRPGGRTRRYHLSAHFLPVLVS
HNF4A DNA FP: change in binding of human HNF4A to DNA, primary screen, biochemical, fluorescence polarization, FITC-DNA. Hepatocyte nuclear factor 4-alpha (Homo sapiens), P41235. 1 h. activity change, % at 10 µM. 0.3% of 360,000 active. AID 1224865, 2016; in the data active means activity change above about 30%, passing the limit was not always enough;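 further: controls were the assay level and a saturating level of protein; the project sought stronger binding though the title names inhibitors; some compounds called inactive have numbers as strong as hits; positive values seem to mean higher polarization but the record does not say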
rRNA inh HTS OD600: also measured in rRNA inh HTS; calls as there; OD600 change, %; measured here: OD600 growth;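 optical density of the mix in the first replicate; 0 = DMSO median and -100 = no signal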
rRNA inh HTS RFP: further read-out of rRNA inh HTS, marked with its call; RFP signal change, %; measured here: RFP humanized mutant strains;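 first replicate; 0 = DMSO median and -100 = no signal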
* hit, by the source's call; i = inactive; ? = inconclusive; . = no result given.

No.	canonical_smiles	ALR inh	Vif TR-FRET	AF4-AF9 inh	rRNA inh HTS	rRNA inh HTS OD600
1	Cc1ccc(S(=O)(=O)N2CC=C(C(=O)NC3CC3)CC2)cc1	-7	24%	4.1	11	5
2	Cc1cccc(Oc2ncc(-c3ccc(Cl)cc3)cn2)c1C	.	26%	.	.	.
3	O=C(c1cccnc1)N1C[C@H]2[C@@H](c3ccccc31)[C@@H](CO)N2C(=O)Nc1ccccc1	.	.	-3.2	3	6
4	CC(C)CN(C(=O)c1ccc(S(=O)(=O)N2CCCCC2)cc1)C1CCS(=O)(=O)C1 (stereo not drawn)	.	-3%	-1.4	12	13
5	Cc1ccc(CN(Cc2ccco2)S(=O)(=O)c2ccc(S(=O)(=O)NCC3CCCO3)cc2)cc1 (stereo not drawn)	-3	-2%	.	.	.
6	Cc1ccc(-n2c(=O)[nH]cc(C(=O)N3CCc4ccccc43)c2=O)cc1C	-3	0%	2.2	-6	-23
7	Cc1ccc(S(=O)(=O)Nc2nc(-c3ccccc3)cs2)cc1	.	5%	-17	-30	-46
8	Cc1noc(C)c1S(=O)(=O)N(C)C[C@@H]1Oc2c(NS(=O)(=O)c3ccc(F)cc3)cccc2C(=O)N([C@H](C)CO)C[C@@H]1C	.	.	-2.1	-6	1

No.	rRNA inh HTS RFP	E coli growth	FGF22 binding	HNF4A DNA FP
1	-2.4	0.72	i	-2.5
2	.	0.78	.	1.5
3	-1.6	.	i	.
4	-0.6	0.69	i	0.4
5	.	0.72	.	-3.7
6	7.9	0.7	i	0.4
7	-8.4	0.63	i	-2.8
8	2.4	.	i	.

Continuation.
No.	canonical_smiles	ALR inh	Vif TR-FRET	AF4-AF9 inh	rRNA inh HTS	rRNA inh HTS OD600
9	CC(C)C[C@H](NC(=O)C1CCN(S(=O)(=O)c2ccccc2)CC1)C(=O)NCc1ccccn1	0	.	-2.4	-1	-7
10	CN(CCC1CCOCC1)C(=O)CC1C(=O)NCCN1Cc1c(F)cccc1Cl (stereo not drawn)	-14	-2%	-2.0	8	9
11	Cc1ccc(CNC(=O)Cc2ccc(-c3ccccc3)cc2)cc1	-3	?	.	.	.
12	Cc1c(NS(=O)(=O)c2cc(C(=O)Nc3ccc(F)cc3Cl)ccc2Cl)c(=O)n(-c2ccccc2)n1C	.	.	-0.6	1	-8
13	Cc1ccc2nc(SCC(=O)Nc3cc(C)on3)nc(=O)n2c1	-6	-4%	0.3	11	8
14	CC1CCN(C(=O)CC2C(=O)Nc3c2c(=O)n(C)c(=O)n3Cc2ccccc2)CC1 (stereo not drawn)	29	9%	-16	-2	-1
15	CC1CC(C)CN(C(=O)COC(=O)/C=C/c2ccco2)C1 (stereo not drawn)	-2	.	0.2	10	13
16	O=C(O)c1cc([N+](=O)[O-])ccc1NCCO	-12	.	.	.	.

No.	rRNA inh HTS RFP	E coli growth	FGF22 binding	HNF4A DNA FP
9	-1.5	0.72	i	2.1
10	1.0	0.73	i	-0.3
11	.	0.71	.	1.3
12	-3.3	0.69	i	5.0
13	1.1	0.62	i	0.5
14	-10	0.7	i	5.1
15	0.8	0.7	i	-9.1
16	.	0.71	.	-0.6

More results:
No.	canonical_smiles	ALR inh	Vif TR-FRET	AF4-AF9 inh	rRNA inh HTS	rRNA inh HTS OD600
17	COc1ccc(NC(=O)Nc2ccc3c(c2)C(=O)N([C@H](C)CO)C[C@@H](C)[C@H](CN(C)C)OCCCC[C@@H](C)O3)cc1	.	.	2.2	0	-2
18	COC(=O)c1cc2c(C)c(C)c3ccccn3c-2c1C(=O)OC	.	9%	.	.	.
19	Cc1c(NC(=O)Cc2noc3ccccc23)cccc1[N+](=O)[O-]	-3	-3%	0.6	-3	0
20	N=C1S/C(=C\c2ccco2)C(=O)N1c1nccs1	.	.	-0.2	-9	2
21	COCCn1c(-c2ccc(OC)cc2)cnc1SCC(=O)Nc1cc(C)on1	-38	3%	.	.	.
22	COc1ccc(S(=O)(=O)N2CCCCC2)cc1NC(=O)c1cccs1	-6	1%	-3.7	3	10
23	N#Cc1ccc(-c2ccc([C@@H]3[C@@H](CO)N4CCCCN(C(=O)Nc5ccc(F)cc5)C[C@@H]34)cc2)cc1	.	.	-13	-2	-11
24	O=C(CN1CCCCC1)NC(=O)Nc1ccccc1F	.	.	0.1	21	20

No.	rRNA inh HTS RFP	E coli growth	FGF22 binding	HNF4A DNA FP
17	-3.0	.	i	.
18	.	0.75	.	-13
19	-1.3	0.7	i	2.5
20	9.8	0.71	i	-4.3
21	.	0.71	.	0.5
22	-2.0	0.71	i	0.1
23	23	.	i	.
24	2.4	0.66	i	-3.0

Further structures follow.
No.	canonical_smiles	ALR inh	Vif TR-FRET	AF4-AF9 inh	rRNA inh HTS	rRNA inh HTS OD600
25	Cc1ccc(-c2nc(S(=O)(=O)c3ccccc3)c(SCC(=O)NCC3CCCO3)o2)cc1 (stereo not drawn)	-10	.	-1.1	2	5
26	Cc1cc(C)cc(NC(=O)C2CCC(CNC(=O)[C@@H]3Cc4ccccc4CN3)CC2)c1 (stereo partly drawn)	12	.	-3.6	-6	-9
27	C/C(=N\NC(=O)Cc1ccc(Br)cc1)c1cccnc1	-18	-1%	-7.1	1	1
28	CCOC(=O)[C@]12Cc3c(cc(OC)c(OC)c3OC)[C@H]1N(CCC(=O)OC)C(=O)c1cc(OC)ccc12	.	.	-0.1	-24*	-17*
29	COc1cc2c(cc1OC)[C@H](C)N(C(=S)Nc1ccc(F)cc1)CC2	-19	.	2.9	-17	-7
30	Cc1ccc(NC(=O)N/C=C/c2ccccc2)cc1	-14	5%	.	.	.
31	O=C(COC(=O)c1ccc(O)cc1)NCC1COc2ccccc2O1 (stereo not drawn)	-35	.	-1.5	-13	-17
32	COCC(=O)N(C)C[C@H]1Oc2ncc(C3=CCCCC3)cc2C(=O)N([C@H](C)CO)C[C@H]1C	.	.	-4.7	0	15

No.	rRNA inh HTS RFP	E coli growth	FGF22 binding	HNF4A DNA FP
25	-1.2	0.69	i	1.5
26	1.5	0.71	i	-0.5
27	-1.9	.	i	-1.0
28	-6.7*	.	i	-2.5
29	0.6	0.66	i	-0.6
30	.	0.71	.	-2.5
31	-1.9	0.62	i	-7.5
32	2.1	.	i	.

Structures above that have a furan ring, fused or not (3):
No.	canonical_smiles	ALR inh	Vif TR-FRET	AF4-AF9 inh	rRNA inh HTS	rRNA inh HTS OD600
5	Cc1ccc(CN(Cc2ccco2)S(=O)(=O)c2ccc(S(=O)(=O)NCC3CCCO3)cc2)cc1 (stereo not drawn)	-3	-2%	.	.	.
15	CC1CC(C)CN(C(=O)COC(=O)/C=C/c2ccco2)C1 (stereo not drawn)	-2	.	0.2	10	13
20	N=C1S/C(=C\c2ccco2)C(=O)N1c1nccs1	.	.	-0.2	-9	2

No.	rRNA inh HTS RFP	E coli growth	FGF22 binding	HNF4A DNA FP
5	.	0.72	.	-3.7
15	0.8	0.7	i	-9.1
20	9.8	0.71	i	-4.3

(listing goes on)
No.	canonical_smiles	ALR inh	Vif TR-FRET	AF4-AF9 inh	rRNA inh HTS	rRNA inh HTS OD600
33	CCN(CC)S(=O)(=O)c1ccc(/C(O)=C(\C#N)c2nc3ccccc3n2C)cc1	-2	-14%	.	.	.
34	O=C(O)C1C2C=CC(C3CC23)C1C(=O)O (stereo not drawn)	-6	.	.	.	.
35	CO[C@H]1CC[C@H]2CCOc3c(C#N)cccc3C(=O)N(C)CC3(CCCCC3)CC(=O)N(C)C[C@@H]1O2	.	.	-4.0	1	4
36	O=C(C[C@H]1CC[C@@H]2[C@H](COC[C@@H](O)CN2Cc2nccs2)O1)NCc1ccc(Oc2ccccc2)cc1	.	.	1.7	1	-23
37	C=CCN1C(=O)c2ccc(C(=O)N3CCN(S(=O)(=O)c4cccc([N+](=O)[O-])c4)CC3)cc2C1=O	-8	5%	-11	-6	9
38	COc1cccc(C2/C(=C(/O)c3ccc(C)cc3)C(=O)C(=O)N2Cc2ccco2)c1 (stereo not drawn)	-7	.	-0.8	11	6
39	NC(=O)C1CCN(CC(=O)Nc2cc(S(=O)(=O)N3CCOCC3)ccc2N2CCCC2)CC1	3	0%	0.7	10	10
40	Cc1cc(C(=O)CCC(=O)N(C)CC(=O)Nc2ccccc2Br)c(C)s1	1	-11%	-3.8	-6	1

No.	rRNA inh HTS RFP	E coli growth	FGF22 binding	HNF4A DNA FP
33	.	.	.	-1.3
34	.	0.67	.	-5.6
35	-0.3	.	i	.
36	-2.3	.	i	.
37	-3.0	0.69	i	-1.3
38	-0.3	0.7	.	1.5
39	0.6	.	i	4.1
40	-2.1	0.65	.	6.1

Other structures
No.	canonical_smiles	ALR inh	Vif TR-FRET	AF4-AF9 inh	rRNA inh HTS	rRNA inh HTS OD600
41	CCCc1nc2c([nH]1)C(c1cccnc1)C(C#N)=C(N)O2 (stereo not drawn)	1	4%	.	.	.
42	CC(C)(C)c1nn(-c2ccccc2)c2nc(Cl)c(C=O)cc12	.	-1%	.	.	.
43	C[C@@H]1CN([C@H](C)CO)C(=O)Cc2cc(NC(=O)NC3CCCCC3)ccc2O[C@@H]1CN(C)Cc1ccc2c(c1)OCO2	.	.	4.8	-4	-8
44	Cc1ccc(C(=O)N2[C@@H]3CN(C)C(=O)[C@@]2(Cc2ccccc2)[C@H]2C(=O)N(C)C(=O)[C@@H]32)cc1	.	.	0.4	-2	-5
45	Cc1cc(C(=O)CSc2nc3ccc(Cl)cc3[nH]2)c(C)n1C	-2	6%	.	.	.
46	COc1ccccc1NC(=O)CSc1nc(N)c(-c2ccccc2)c(=O)[nH]1	-13	-8%	-1.2	-1	-13
47	N#C/C(=C\c1ccc(-c2nc3ccccc3s2)o1)C(N)=O	50	1%	2.1	6	0
48	CCc1c(-c2ccc(OC)cc2)ncn1CCc1ccccc1OC	.	.	17	-56	-78

No.	rRNA inh HTS RFP	E coli growth	FGF22 binding	HNF4A DNA FP
41	.	0.68	.	6.8
42	.	0.65	.	-0.6
43	1.9	.	i	.
44	-7.8	.	i	-5.0
45	.	0.72	.	6.1
46	-2.0	0.67	i	2.0
47	11	0.65	i	6.1
48	-15	.	i	.

Next section.
No.	canonical_smiles	ALR inh	Vif TR-FRET	AF4-AF9 inh	rRNA inh HTS	rRNA inh HTS OD600
49	CC(C)NC(=O)N1[C@@H](CO)[C@@H]2c3ccccc3N(C(=O)Nc3ccc(F)cc3)C[C@@H]21	.	.	1.9	2	3
50	CCOc1ccc(/C=N/Nc2nncc(-c3ccccc3)n2)cc1OC	-2	11%	-2.2	9	18
51	COc1cc(/C=C2/SC(=Nc3ccc(O)cc3)NC2=O)ccc1O	23	-4%	-13	-27	-43
52	COc1ccccc1S(=O)(=O)N1C[C@@H](O)COC[C@@H]2O[C@H](CC(=O)O)CC[C@H]21	.	.	-11	4	5

No.	rRNA inh HTS RFP	E coli growth	FGF22 binding	HNF4A DNA FP
49	1.2	.	i	.
50	4.0	.	i	2.4
51	11	0.66	.	17
52	-3.0	.	i	.

The list is partial. The share of hits here may be higher or lower than overall.
